# Mtb hypoxia rep = PubChem AID 1159583 | M. tuberculosis hypoxia-regulated fluorescent reporter, fluorescence | fluorescence inhibition, % (concentration not given with the values) | 300,000 tested, 0.1% active;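 active = 35 to 45% if threefold the growth effect, above 45% if 1.5-fold the growth effect; inactive = the rest, general growth blockers included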;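 also: wells of about 50 µL received 100 nL stock; 0% = vehicle wells and 100% = reference inhibitor wells; whole bacteria with a GFP reporter of the hypoxia response; strong numbers were not always called active; many hits fall short of the cut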
# PrP 5UTR inh = inhibition of PrP 5' UTR reporter expression. 340,000 tested, 0.35% active. inhibition, % (no concentration beside the values). AID 488862, 2010. cell-based PrP 5' UTR mRNA reporter, plate reader;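 active = every replicate at 50% or more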;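 also: 0 = median of the neutral control wells; tested in H4 reporter cells; numbers are from one replicate; inactives centre near -14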
# BJeLR lethal = MLPCN primary cell-based screen for lethality selective to Ras in HRASV12 cells; BJeLR (HRASV12) viability, CellTiter-Glo ATP luminescence, 48 h; reference of the scale not given here; inhibition, % (no concentration beside the values); 300,000 tested, 0.17% active;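 active = replicate mean above 50%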;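 also: 50 nL library stock added to about 25 µL; numbers are from one replicate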
# ugtP null kill = growth inhibition of ugtP-null S. aureus, primary screen, RN4220 ugtP deletion, OD600 | AID 1259309, 2017 | growth inhibition, % (no concentration beside the values) | 16 h; some inactives read as strong as hits | 330,000 tested, 0.54% active;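 active = z-score under -3 and OD600 up to 0.15 on both plates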;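 also: plate controls were untreated wells for no effect and antibiotic for full effect; wells of about 80 µL received 100 nL stock; the first replicate is given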
# Autofluor counter = compound fluorescence in toxin protease inhibitor counterscreen. 360,000 tested, 3.1% active. AID 624483. fluorescence intensity (concentration not given with the values). compound autofluorescence counterscreen, microsphere flow cytometry; stronger effect = higher value;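 active = at least 3 SD above the mean of all compounds, about 16000 in these data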;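 also: 100 nL of 1 mM stock went into each well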
# Sa RN4220 lethal = growth inhibition of S. aureus RN4220, primary screen, OD600; AID 1259311, 2017; 330,000 tested, 0.33% active; inhibition, % (no concentration beside the values); 16 h;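 active = z-score of -3 or lower and OD600 up to 0.18 on both plates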;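 also: plate controls were untreated cells for no effect and reference antibiotic for full effect; stock transfer was 100 nL into about 80 µL; one replicate is shown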
# Mtb hypoxia rep growth = also measured in Mtb hypoxia rep; calls as there; growth inhibition, %; measured here: M. tuberculosis growth (absorbance);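 0% = vehicle and 100% = reference antibiotic; read after six days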
# * hit, by the source's call; nt = no result given.
SMILES	Mtb hypoxia rep	Mtb hypoxia rep growth	PrP 5UTR inh	BJeLR lethal	ugtP null kill	Autofluor counter	Sa RN4220 lethal
COc1ccc(S(=O)(=O)N2CCC(C(=O)NCc3cccnc3)CC2)cc1OC	7	10	-16	-6	13	6070	4.8
c1ccc(NC2=NCCN2CCC2CCCC2)cc1	14	11	-22	-12	-8	3450	4.0
COc1ccccc1OCCC(=O)Nc1nc(C)cs1	12	7	-10	3	-4	4346	7.0
Cc1csc(SCC(=O)Nc2cccc3nsnc23)n1	nt	nt	19	nt	4	2233	5.9
COc1ccc(N2CCN(C(=O)COC(=O)/C=C/c3ccc(C(F)(F)F)cc3)CC2)cc1	-7	2	0	-5	2	5113	-1.7
Cc1cc(OCC(=O)OCC(=O)NC2CCCCC2C)ccc1Cl (stereo not drawn)	-2	1	-20	nt	1	nt	10.0
CCCOC1CCCN(C(=O)c2ccc(OC)c(OC3CCN(C(C)C)CC3)c2)C1 (stereo not drawn)	5	-10	-11	10	6	5113	-1.2
CCCC1(C(=O)O)NC(c2ccc(OC)cc2O)C2C(=O)N(c3ccc(OC)cc3)C(=O)C21 (stereo not drawn)	nt	nt	-19	3	4	5043	-0.4

# The list goes on.
SMILES	Mtb hypoxia rep	Mtb hypoxia rep growth	PrP 5UTR inh	BJeLR lethal	ugtP null kill	Autofluor counter	Sa RN4220 lethal
Cc1ccccc1OCC(=O)NNC(=O)c1ccc(-n2cncn2)c([N+](=O)[O-])c1	-4	14	-2	-2	4	5295	0.2
COc1ccc(Cl)cc1NC(=O)CN(C)C(=O)c1ccc2c(c1)CC(c1ccccc1)OC2=O (stereo not drawn)	4	-5	-29	nt	2	3799	-1.3
CCOC(=O)C1C2COc3ccc(C)cc3C2N2C(=O)c3ccc(Cl)cc3NC(=O)[C@@]12C (stereo partly drawn)	2	8	nt	nt	-1	nt	4.7
COC(=O)c1ccc2nc(C)cc(Nc3ccccc3C)c2c1	9	1	-29	2	-3	6032	2.4
COC(=O)c1nc(NC(=O)c2ccc(Cl)cc2)n[nH]1	1	1	-19	1	-3	12469	1.7
CCc1ccc(-c2cc(C(=O)Nc3ccc(S(=O)(=O)NC(C)=O)cc3)c3ccccc3n2)cc1	nt	nt	-3	5	nt	2160	nt
Cc1ccc(OCC(=O)NCCc2c[nH]c3ccccc23)cc1	3	3	34	0	-1	4277	4.6
CCCCN(C(=O)c1c(CC)noc1C)c1c(N)n(CCC)c(=O)[nH]c1=O	-9	-3	-93	2	-3	5248	-2.4

# Later entries:
SMILES	Mtb hypoxia rep	Mtb hypoxia rep growth	PrP 5UTR inh	BJeLR lethal	ugtP null kill	Autofluor counter	Sa RN4220 lethal
CCCOc1ccccc1NC(=O)Nc1ccccc1Cl	-3	-3	-22	2	0	2599	0.9
COc1ccccc1CNC(=O)c1oc2ccccc2c1C	2	8	-21	-5	12	5552	1.3
CC(C)c1cc(CN2C(C)COCC2C)cc(C(C)C)c1O (stereo not drawn)	5	9	-11	nt	3	3857	5.4
O=C(NC1CC2CCC1C2)c1ccco1 (stereo not drawn)	nt	nt	9	-7	3	3108	2.0
c1ccc2c(CNc3ccc(CNc4ncn[nH]4)cc3)cccc2c1	7	4	-9	5	-19	3409	-11
CC(=NNC(=O)c1nc2ccccn2c1C)c1cccc([N+](=O)[O-])c1	6	-10	nt	nt	2	nt	12
COC(=O)c1ccsc1NC(=O)c1ccc(Cl)s1	nt	nt	-8	1	2	5595	14
CCOc1cc(Cl)c(NC(C)=O)cc1OCC	11	6	-6	-1	16	9394	3.6

# (next part)
SMILES	Mtb hypoxia rep	Mtb hypoxia rep growth	PrP 5UTR inh	BJeLR lethal	ugtP null kill	Autofluor counter	Sa RN4220 lethal
CN(CCOc1ccccc1)C(=O)c1cc([N+](=O)[O-])cc([N+](=O)[O-])c1	2	30	-15	8	-2	4483	2.5
COC(=O)C(O)(c1ccc(NC(=O)c2ccco2)c(OC)c1)C(F)(F)F (stereo not drawn)	nt	nt	-4	-6	0	2235	-1.8
CN(C(=O)c1c(Cl)nc2sccn12)C1CCCCC1	19	8	-12	-5	-6	11045	5.6
Cc1ccc(N2CCN(Cc3ccccc3)CC2=O)c(C)c1	14	-2	-2	8	1	3941	2.0
CC(=O)Oc1ccc(C(=O)Cc2ccccn2)c(O)c1	6	7	1	-2	-5	7645	4.5
Cc1nc2ccc(Oc3ccccc3)cc2s1	22	12	-16	-1	6	2837	13
CCS(=O)c1ccccc1C(=O)OCC(=O)N1CCC(c2ccccc2)=N1 (stereo not drawn)	3	2	8	nt	1	4119	1.5
C#CCOCCOCCOCCNc1nc(N2CCN(C(=O)[C@H](C(C)C)n3cc(CCO)nn3)CC2)nc(N2CCN(C(=O)[C@H]([C@@H](C)CC)n3cc(CCCN=C(N)N)nn3)CC2)n1	nt	nt	-27	4	nt	3873	nt

# 19 entries from above, arranged by SMILES length, low to high.
SMILES	Mtb hypoxia rep	Mtb hypoxia rep growth	PrP 5UTR inh	BJeLR lethal	ugtP null kill	Autofluor counter	Sa RN4220 lethal
O=C(NC1CC2CCC1C2)c1ccco1 (stereo not drawn)	nt	nt	9	-7	3	3108	2.0
Cc1nc2ccc(Oc3ccccc3)cc2s1	22	12	-16	-1	6	2837	13
CCOc1cc(Cl)c(NC(C)=O)cc1OCC	11	6	-6	-1	16	9394	3.6
COc1ccccc1OCCC(=O)Nc1nc(C)cs1	12	7	-10	3	-4	4346	7.0
Cc1csc(SCC(=O)Nc2cccc3nsnc23)n1	nt	nt	19	nt	4	2233	5.9
CC(=O)Oc1ccc(C(=O)Cc2ccccn2)c(O)c1	6	7	1	-2	-5	7645	4.5
Cc1ccc(N2CCN(Cc3ccccc3)CC2=O)c(C)c1	14	-2	-2	8	1	3941	2.0
COC(=O)c1ccc2nc(C)cc(Nc3ccccc3C)c2c1	9	1	-29	2	-3	6032	2.4
COC(=O)c1nc(NC(=O)c2ccc(Cl)cc2)n[nH]1	1	1	-19	1	-3	12469	1.7
c1ccc2c(CNc3ccc(CNc4ncn[nH]4)cc3)cccc2c1	7	4	-9	5	-19	3409	-11
COC(=O)C(O)(c1ccc(NC(=O)c2ccco2)c(OC)c1)C(F)(F)F (stereo not drawn)	nt	nt	-4	-6	0	2235	-1.8
CCCCN(C(=O)c1c(CC)noc1C)c1c(N)n(CCC)c(=O)[nH]c1=O	-9	-3	-93	2	-3	5248	-2.4
Cc1ccccc1OCC(=O)NNC(=O)c1ccc(-n2cncn2)c([N+](=O)[O-])c1	-4	14	-2	-2	4	5295	0.2
CN(CCOc1ccccc1)C(=O)c1cc([N+](=O)[O-])cc([N+](=O)[O-])c1	2	30	-15	8	-2	4483	2.5
COc1ccc(N2CCN(C(=O)COC(=O)/C=C/c3ccc(C(F)(F)F)cc3)CC2)cc1	-7	2	0	-5	2	5113	-1.7
COc1ccc(Cl)cc1NC(=O)CN(C)C(=O)c1ccc2c(c1)CC(c1ccccc1)OC2=O (stereo not drawn)	4	-5	-29	nt	2	3799	-1.3
CCOC(=O)C1C2COc3ccc(C)cc3C2N2C(=O)c3ccc(Cl)cc3NC(=O)[C@@]12C (stereo partly drawn)	2	8	nt	nt	-1	nt	4.7
CCc1ccc(-c2cc(C(=O)Nc3ccc(S(=O)(=O)NC(C)=O)cc3)c3ccccc3n2)cc1	nt	nt	-3	5	nt	2160	nt
C#CCOCCOCCOCCNc1nc(N2CCN(C(=O)[C@H](C(C)C)n3cc(CCO)nn3)CC2)nc(N2CCN(C(=O)[C@H]([C@@H](C)CC)n3cc(CCCN=C(N)N)nn3)CC2)n1	nt	nt	-27	4	nt	3873	nt

# Next part
SMILES	Mtb hypoxia rep	Mtb hypoxia rep growth	PrP 5UTR inh	BJeLR lethal	ugtP null kill	Autofluor counter	Sa RN4220 lethal
COc1ccc(OC)c(C(=O)c2ccc(C(=O)O)cc2)c1	10	3	-8	-2	5	16841*	-0.2
CCSc1nnc(NC(=O)CSc2nccn2-c2cccc(C)c2C)s1	nt	nt	nt	-2	2	nt	9.6
COC(=O)c1sc(NC(=O)C2CCCCC2C(=O)O)c(C(=O)OC)c1C (stereo not drawn)	-9	-3	-20	-6	-3	3262	5.0
CCSc1nc2c(cnn2-c2ccc(C)cc2)c(=O)[nH]1	3	1	-17	-14	-1	6031	4.0
O=C(CCNS(=O)(=O)c1ccc2c(c1)CCC(=O)N2)Nc1ccc2c(c1)OCCO2	1	11	-5	-1	0	9944	-0.9
COc1ccc2nc(NC(=O)c3ccccc3O)sc2c1	-8	-6	-20	4	50	3068	54
CCC(C)[C@H](NC(=O)N1CCCCCC1)C(=O)O (stereo partly drawn)	-2	-16	-8	-3	-3	4878	-1.4
COc1cc([N+](=O)[O-])ccc1NC(=O)COC(=O)c1c[nH]c(=O)[nH]c1=O	4	8	-19	nt	-2	3696	5.4

# Carrying on.
SMILES	Mtb hypoxia rep	Mtb hypoxia rep growth	PrP 5UTR inh	BJeLR lethal	ugtP null kill	Autofluor counter	Sa RN4220 lethal
COc1ccc(S(=O)(=O)Nc2ncccn2)cc1	1	6	-20	19	8	3908	1.8
O=C(Cn1cc(C(F)(F)F)ccc1=O)Nc1cc(S(=O)(=O)N2CCOCC2)ccc1Cl	8	1	-10	-21	5	2574	3.3
CC(C)c1nc(CNC(=O)CCc2nnc(-c3ccsc3)o2)cs1	8	9	-7	5	7	4747	3.9
Cc1ccc(S(=O)(=O)NC(C)C(=O)NC2CC2)cc1 (stereo not drawn)	8	1	-5	5	-3	5885	-0.9
Cc1cccc(C)c1NC(=O)C(=O)NCc1ccccn1	4	-1	-4	11	6	8818	1.8
O=C1C=C(NC2=CC3OC(c4ccccc4)OCC3OC2=O)CCC1 (stereo not drawn)	5	2	-17	-5	4	7398	5.3
COC(=O)C1(Cc2cc(-c3cccnc3)no2)CCN(C(=O)OC(C)(C)C)CC1	nt	nt	-1	10	nt	3439	nt
CC(O)CNc1nc2c(c(=O)n(Cc3ccc(Cl)c(Cl)c3)c(=O)n2C)n1C (stereo not drawn)	3	-3	-8	-5	-3	6204	1.2

# Additional compounds follow:
SMILES	Mtb hypoxia rep	Mtb hypoxia rep growth	PrP 5UTR inh	BJeLR lethal	ugtP null kill	Autofluor counter	Sa RN4220 lethal
COc1cccc(C=NNC(N)=S)c1OS(=O)(=O)c1ccccc1	nt	nt	nt	nt	-2	nt	4.1
Cc1ccc(-n2nnnc2SCC(N)=O)c(C)c1	15	7	-25	-7	0	11521	5.7
COc1cccc(C2C(C(=O)c3cc4ccccc4o3)=C(O)C(=O)N2CCN(C)C)c1OC (stereo not drawn)	nt	nt	10	-2	-4	5106	0.3
CC(=O)c1cccc(N2C(=NC(=O)C(C)C)SC3CS(=O)(=O)CC32)c1 (stereo not drawn)	3	1	-4	0	2	4105	3.5
CCOC(=O)N1CCN(C(=O)c2cccc(OC)c2OC)CC1	nt	nt	-16	1	6	nt	2.0
O=C(CN1CCN(c2ccccc2)CC1)Nc1ccc(F)cc1	10	3	-24	-7	-8	3581	4.4
CC1CCCN(S(=O)(=O)c2ccc(C(=O)Nc3nnc(-c4ccccn4)o3)cc2)C1 (stereo not drawn)	5	9	-17	5	-6	2014	11
O=C(c1ccc(Cl)cc1)N1CCc2ccccc21	9	-1	-15	9	12	2995	3.5

# (next part)
SMILES	Mtb hypoxia rep	Mtb hypoxia rep growth	PrP 5UTR inh	BJeLR lethal	ugtP null kill	Autofluor counter	Sa RN4220 lethal
CC1(C)Oc2ccc(C(=O)N3CCCCC3)cc2N(CC(=O)NCc2ccccc2)C1=O	nt	nt	-11	-5	2	3938	0.6
CC(=O)C(Sc1ncnc2c1nnn2-c1ccc(F)cc1)C(=O)N(C)C (stereo not drawn)	13	7	nt	-5	-1	nt	7.9
CCOC(=O)c1c(C)[nH]c(C(=O)CN2CC(C)OC(C)C2)c1C (stereo not drawn)	8	13	2	-14	2	6909	3.1
CCN1C(=O)/C(=C/c2cn(-c3ccccc3)nc2-c2cccnc2)SC1=S	5	3	-49	nt	-9	5569	8.9
COc1cccc(CNc2nccs2)c1O	14	5	-36	-9	13	3824	0.9
Cc1nc2ccccc2n1CC(=O)N/N=C\C=C\c1ccccc1	nt	nt	-28	2	nt	10011	nt
COC(=O)C(C)Oc1ccc2c(c1)O/C(=C\c1cccc(Br)c1)C2=O (stereo not drawn)	10	-12	-14	3	-2	3046	3.5
Cc1ccc(N(CC(=O)NC(C)(C)C)C(=O)CS(=O)CC(=O)Nc2ccc(F)cc2)cc1 (stereo not drawn)	-5	10	-64	-8	1	4297	3.0
O=C1/C(=C/c2cccs2)SC(=S)N1CCCC(=O)N(CCO)c1ccccc1	7	6	3	-2	-11	2791	1.8
N#Cc1c(SCC(=O)Nc2nccs2)nc2c(c1-c1ccco1)CCCC2	8	-2	-16	2	-2	2647	2.5

# Compound activity as filed in PubChem BioAssay.

# An unsorted share of the library. Share with any hit: about 4%.
